# TRPML1 inh – qHTS for Inhibitors of the Human Mucolipin Transient Receptor Potential 1 (TRPML1). Mucolipin-1 (Homo sapiens), Q9GZU1. TRPML1-inducible cells, Ca2+ dye fluorescence, FDSS; active compounds read low; inhibition of EC80 agonist-evoked calcium signal. activity change, negative = inhibition, % (concentration not given with the values). hit rate 0.02% among 390,000; in the data active means activity change below about -50%; inconclusive means about -30% to -50%; inactive means above about -30%;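 note: stimulus is agonist 54-4 at its EC80 concentration; % is set by controls: 0 for no effect and ±100 for the full control effect; the text of the record puts the active cut at -80%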
# Target sequence (Q9GZU1 whole entry, looked up): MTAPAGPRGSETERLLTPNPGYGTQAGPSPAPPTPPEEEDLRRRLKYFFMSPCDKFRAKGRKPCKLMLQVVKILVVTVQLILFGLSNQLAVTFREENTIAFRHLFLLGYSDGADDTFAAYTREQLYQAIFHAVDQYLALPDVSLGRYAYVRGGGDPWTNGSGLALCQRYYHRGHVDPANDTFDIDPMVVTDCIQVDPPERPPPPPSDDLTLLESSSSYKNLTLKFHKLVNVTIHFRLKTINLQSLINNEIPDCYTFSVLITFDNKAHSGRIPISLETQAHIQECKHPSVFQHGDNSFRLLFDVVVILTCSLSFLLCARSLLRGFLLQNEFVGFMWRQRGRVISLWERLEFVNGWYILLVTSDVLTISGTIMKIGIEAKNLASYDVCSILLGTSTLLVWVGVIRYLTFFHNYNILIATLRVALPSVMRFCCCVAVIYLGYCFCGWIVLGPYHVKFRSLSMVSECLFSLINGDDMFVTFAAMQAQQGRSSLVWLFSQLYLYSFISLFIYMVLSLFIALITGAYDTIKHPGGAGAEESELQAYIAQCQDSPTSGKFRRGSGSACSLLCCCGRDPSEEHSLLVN
#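 Calcium fluorescence in TRPML1-DL cells induced overnight with Tet: a 110 s read after compound pin addition, then a 110 s antagonist read after challenge with 54-4 at 4 uM final (EC80).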
# TRPML1 ag – qHTS for Agonists of the Human Mucolipin Transient Receptor Potential 1 (TRPML1); Mucolipin-1 (Homo sapiens), Q9GZU1; TRPML1-expressing cells, Ca2+ dye fluorescence, FDSS; host cell line not named in the record; reference of the full effect not given here; activation, % (concentration not given with the values); hit rate 0.12% among 410,000; AID 624414, 2012; in the data active = activation above about 50%; inconclusive = about 30% to 50%; inactive = below about 30%; note: 0% is about no effect; the text of the record puts the active cut at 80%
#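 Tet-induced TRPML1-DL cells, 1,500 per well, cultured overnight, were loaded with a no-wash Ca2+ dye for 45–90 min. Calcium fluorescence was recorded on the FDSS for 110 s after compound addition, before the EC80 agonist (4 uM 54-4) was added.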
# The depositor's hits bear a star; ? = inconclusive.
SMILES,TRPML1 inh,TRPML1 ag
CCCCC(=O)Nc1ccccc1C(=O)OCc1cc(=O)n2nc(C3CCCCC3)sc2n1,33,4.6
COc1ccc2c(CNC3CCCCCC3)c(C(=O)O)n(Cc3ccc(C)cc3)c2c1,40,1.6
CC(C)COC(=O)/C(C#N)=C\c1ccc(-c2ccccc2Cl)o1,-4,-0.4
Cc1ccccc1CCNC(=O)c1ccc2c(c1)nc1n2CCOC1,-5,-0.5
Cc1cccc(Cn2cc(C(=O)Nc3ccc(F)c(C(F)(F)F)c3)ccc2=O)c1,10,-0.9
O=C(CCCCCn1c(=O)c2sccc2n(Cc2ccc(Cl)cc2)c1=O)NCc1ccc2c(c1)OCO2,11,2.1
COc1ccc(C)cc1S(=O)(=O)NCC(c1ccc(N(C)C)cc1)N1CCc2ccccc21 (stereo not given),-4,-0.5
Cc1cc2ccccc2n1CCNC(=O)c1ccc(Br)cc1,-9,-0.7
Cc1ccc(-n2nc(C)c3c(C)c(CCC(=O)NCc4ccccc4Cl)c(C)nc32)cc1,11,-0.3
Cc1ccc(C)c(NS(=O)(=O)c2ccc3c(c2)CCCN3C(=O)C2CCC2)c1,-13,1.1
Cc1ccc(NS(=O)(=O)c2ccc3nc(-c4ccccc4)[nH]c3c2)c(Cl)c1,13,-0.3
O=C1c2ccccc2C(=O)C1(c1ccccc1)N1CCN(c2cccc(C(F)(F)F)c2)CC1,-14,-0.7
COc1ccc(/C=C/C(=O)Nc2cccc(F)c2)cc1,4,0.8
CCOc1cccc2c1Oc1nc(-c3ccccc3)nc(SCC(=O)Nc3ccc(F)cc3)c1C2,13,0.5
COC(=O)c1ccccc1NC(=O)CCC(=O)N1CCOc2ccccc21,-4,0.8
Cc1cc(F)ccc1NC(=O)CCS(=O)(=O)c1cc2c3c(c1)CCN3C(=O)CC2,1,-0.9
CCCN(C(=O)NCc1noc2ccc(C)cc12)c1ccc(Cl)c(Cl)c1,1,-0.1
Cc1ccc(NC(=O)/C=C\C(=O)N(c2ccc(C(C)C)cc2)C(C(=O)NCc2ccco2)c2ccc(Cl)cc2)cc1 (stereo not given),14,0.8
CCOC(=O)c1noc2ncnc(Nc3ccc(F)cc3F)c12,6,-0.8
COc1ccc(NC(=O)c2ccc3nc(CCc4ccccc4)oc3c2)c(OC)c1,3,2.1
Cc1ccc(-c2cn3c(n2)sc2cc(C(=O)NCCCc4ccccc4)ccc23)cc1,1,-0.4
O=C(CSc1nc2c(c(=O)[nH]1)CN(Cc1ccc3c(c1)OCO3)CC2)Nc1cc(F)ccc1F,-23,2.0
Cc1cccc(NC(=O)C2CCC(CNS(=O)(=O)c3ccc4c(c3)CCCC(=O)N4)CC2)c1C (stereo not given),12,0.2
Cc1cc(C)cc(OCC(=O)Nc2ccc(Cl)c(-c3nc4ncccc4o3)c2)c1,-9,1.6
COc1ccc(-c2c(C#N)c(SCC(=O)Nc3ccc(C)c(C)c3)nc(C)c2C(=O)Nc2ccc(Cl)cc2)cc1,7,0.9
CCc1ccc2oc(C(=O)Nc3cc(C)ccc3C)cc(=O)c2c1,-13,-0.4
COc1ccc(NC(=O)c2c(-c3ccccc3)c(-c3ccccc3)nn(C)c2=O)c(OC)c1,-22,2.2
Cc1ccc(NC(=O)c2c(C)nc3sc(C(=O)Nc4ccc(F)cc4)c(N)c3c2-c2ccccc2Cl)c(C)c1,15,0.8
CCN(C(=O)CSc1nnc(-c2cc3occc3n2C)n1-c1ccccc1C)c1ccccc1,6,2.8
COc1ccc(Nc2cc(C)nc3c(C)c(C)ccc23)cc1,?,1.5
Cc1ccccc1NC(=O)c1ccc(F)c(S(=O)(=O)NC2CCCC2)c1,-11,2.2
CCCN(c1ccccc1F)S(=O)(=O)c1cc(-c2cc(C)no2)ccc1C,18,0.8
COc1cccc(CNC(=O)CSc2ncc(S(=O)(=O)c3ccc(Br)cc3)c(=O)[nH]2)c1,4,-0.7
COc1ccc(CC(=O)NCC(c2cccs2)S(=O)(=O)c2ccc(F)c(C)c2)cc1 (stereo not given),-17,0.7
CC(=O)NCCNC(=O)CCCc1nnc2n(CC(C)C)c(=O)c3sccc3n12,-13,1.3
Cn1nnc2c(N3CCN(c4ccccc4F)CC3)ncnc21,-1,-0.4
Cc1ccc2c(c1)-c1onc(C(=O)N3CCN(c4cc(Cl)ccc4C)CC3)c1CO2,5,1.8
CCc1ccccc1NC(=O)c1nc2nc(C)cc(C(F)F)n2n1,10,-1.1
CN1CCN(C(=O)c2cnn(-c3ccc(F)cc3F)c2C2CCN(C(=O)OC(C)(C)C)CC2)CC1,-13,1.5
O=S(=O)(c1ccc(F)cc1)N(Cc1nc(-c2ccccc2)no1)C1CCCCC1,15,2.1
CCOC(=O)C1CCCN(C(=O)Cn2ncc3c(C)n(Cc4ccccc4F)c(C)c3c2=O)C1 (stereo not given),5,0.2
CCC(=O)N1c2ccc(S(=O)(=O)CCC(=O)N3CCN(c4ccc(F)cc4)CC3)cc2CC1C (stereo not given),-9,-0.5
Cc1cc(C)cc(-n2c(SCC(=O)Nc3ccccc3)nc3c(oc4ccccc43)c2=O)c1,21,-0.5
N#Cc1ccc(CSc2nc3c(c(=O)[nH]2)CCC3)cc1,4,5.0
COc1cc(C(=O)N(Cc2ccc(C(C)C)cc2)C2CCS(=O)(=O)C2)cc(OC)c1OC (stereo not given),15,0.0
CCc1ccc(-n2nnc(-c3nc(-c4cccs4)no3)c2N)cc1,8,0.3
Cc1ccccc1CSc1nc2ccsc2c(=O)n1CCC(C)C,?,1.4
CC(=O)c1cccc(NC(=O)Cn2c(-c3cncs3)nc3ccccc32)c1,12,-1.2
CCN(c1cccc(C)c1)c1ncnc2c1cnn2-c1cccc(Cl)c1,-3,-0.1
CCCn1c2ccccc2c2cnn(CC(=O)Nc3cc(C)c(Cl)cc3OC)c(=O)c21,?,-0.3

# For reference, 6 of the compounds above.
SMILES,TRPML1 inh,TRPML1 ag
Cc1cc(C)cc(-n2c(SCC(=O)Nc3ccccc3)nc3c(oc4ccccc43)c2=O)c1,21,-0.5
N#Cc1ccc(CSc2nc3c(c(=O)[nH]2)CCC3)cc1,4,5.0
COc1cc(C(=O)N(Cc2ccc(C(C)C)cc2)C2CCS(=O)(=O)C2)cc(OC)c1OC (stereo not given),15,0.0
CCc1ccc(-n2nnc(-c3nc(-c4cccs4)no3)c2N)cc1,8,0.3
Cc1ccccc1CSc1nc2ccsc2c(=O)n1CCC(C)C,?,1.4
CC(=O)c1cccc(NC(=O)Cn2c(-c3cncs3)nc3ccccc32)c1,12,-1.2

# The listing continues.
SMILES,TRPML1 inh,TRPML1 ag
CCCN(CCC)CCCNC(=O)Cn1ncc2c3ccccc3n(Cc3ccccc3)c2c1=O,-3,1.9
COc1ccc(Cn2c(SCC(=O)Nc3ccc(OC)cc3)nc3ccccc32)cc1,-13,-0.8
COc1ccc(Br)cc1CNC(=O)c1cnc2sc(N3CCCC3)nn2c1=O,-8,-0.2
Cc1sc2ncn(CC(=O)Nc3ccc(F)cc3Cl)c(=O)c2c1S(=O)(=O)N1CCN(c2ncccn2)CC1,7,-0.5
O=C(NCc1ccc(F)cc1)c1ccc2nc(N3CCCCC3)sc2c1,-15,2.6
Oc1ccc(-c2nc3ccc(Cl)cn3c2Nc2ccc3c(c2)OCO3)cc1,-7,1.0
COc1ccc(-n2c(=O)c3sc4ccccc4c3n(Cc3ccccc3C)c2=O)cc1OC,22,-0.6
CSc1nc(Nc2ccc(C)cc2C)cc(-c2ccccc2)n1,-1,0.1
COc1ccccc1C(=O)Nc1ccc2oc(-c3cccc4c(Br)cccc34)nc2c1,11,1.8
Cn1cc(S(=O)(=O)c2ccccc2)c(=O)c2cc(F)c(N3CCN(c4ccc(F)cc4)CC3)cc21,23,0.3
Cc1cccc(N2C(=O)N(CC(=O)C(C)(C)C)c3ccccc3S2(=O)=O)c1C,7,-1.1
Cc1c2cnn(CC(=O)NCC(C)c3ccccc3)c(=O)c2c(C)n1Cc1cccc(Cl)c1 (stereo not given),10,-0.2
Cc1nnc2c(N3CCN(c4ccc(F)cc4)CC3)nc3ccc(C(=O)c4ccccc4)cc3n12,17,0.3
CCCc1nn2c(=O)cc(COC(=O)c3ccc(NC(=O)C(C)Oc4ccccc4)cc3)nc2s1 (stereo not given),0,0.3
COc1cccc(NC(=O)C(=O)NCCc2sc(-c3cccc(C)c3)nc2C)c1,5,3.1
CC(C)(C)C(=O)Cn1c(=O)n(-c2ccc(Cl)c(Cl)c2)c(=O)c2c3c(sc21)CCCC3,6,0.7
CC(C)(C)c1ccc(S(=O)(=O)Nc2ccc(O)c(Sc3nc4ccccc4s3)c2)cc1,-11,2.4
CC(=O)c1ccc(NC(=O)CN2C(=O)CCc3ccccc32)cc1,1,-0.1
CCOc1ccccc1CN1CCc2nc(N3CCN(c4ccccc4F)CC3)ncc2C1,2,6.1
Cc1ccc(C)c(NC(=O)Cn2c(=O)n(Cc3ccc4c(c3)OCO4)c(=O)c3ccccc32)c1,-6,1.2

# Pulled by structure from the entries so far, four records:
SMILES,TRPML1 inh,TRPML1 ag
O=S(=O)(c1ccc(F)cc1)N(Cc1nc(-c2ccccc2)no1)C1CCCCC1,15,2.1
Cc1cc(C)cc(OCC(=O)Nc2ccc(Cl)c(-c3nc4ncccc4o3)c2)c1,-9,1.6
COc1ccc(Br)cc1CNC(=O)c1cnc2sc(N3CCCC3)nn2c1=O,-8,-0.2
Cc1ccccc1CSc1nc2ccsc2c(=O)n1CCC(C)C,?,1.4

# The results go on.
SMILES,TRPML1 inh,TRPML1 ag
CCOC(=O)C1CCCN(C(=O)c2ccc3c(c2)sc2nc(-c4ccc(C)cc4C)cn23)C1 (stereo not given),3,-0.6
COc1ccc2c(CNCc3cccs3)c(C(=O)O)n(Cc3ccc(F)cc3)c2c1,9,-0.5
Cc1ccc(CSc2cn(CCNC(=O)c3cccs3)c3ccccc23)cc1,47,0.2
CCOC(=O)C1CCC(CN(Cc2ccc(Cl)cc2)S(=O)(=O)c2cccc(Cl)c2C)CC1 (stereo not given),-3,0.6
Cc1ccc(-n2ncc(C(=O)N3CCN(c4ncccn4)CC3)c2C2CCN(C(=O)OC(C)(C)C)CC2)cc1,12,0.1
Cc1ccc(CCNC(=O)c2ccc3c(c2)nc2n3CCCCC2)cc1,22,-0.1
Cc1ccc(CCNC(=O)c2nn(C)c3c2CSc2ccccc2-3)cc1,18,3.5
O=C(CCn1c(=O)c2cccn2c2cccnc21)Nc1ccccc1Br,-5,-0.4
CCOc1ccccc1NC(=O)C1CCCN(c2ncnc3onc(-c4ccc(F)cc4)c23)C1 (stereo not given),19,1.5
Cc1cc(C)cc(OCC(=O)N(Cc2ccc(C)o2)C2CCS(=O)(=O)C2)c1 (stereo not given),13,0.3
Cc1ccc(N(C)C(=O)C2CCN(S(=O)(=O)c3cn(C)cn3)CC2)cc1,29,2.4
COc1ccc(OCC(=O)Nc2ccc3nn(-c4ccc(OC)cc4)nc3c2)cc1,-27,0.4
COc1cc(Cl)c(NC(=O)C2CCN(S(=O)(=O)c3c(C)noc3/C=C/c3ccccc3F)CC2)c(OC)c1,1,-0.9
O=c1cc(COc2ccc(Cl)cc2Cl)nc2scc(-c3ccccc3)n12,-2,0.5
CCOC(=O)c1c(C)oc2nc(C)nc(NCc3cccc(Cl)c3)c12,-8,0.1
CCOc1ccccc1C(=O)N(Cc1cccs1)c1ccc(Cl)cc1,25,3.3
CCc1cc2c(cc3c(=O)n(CC(=O)N4CCC(C)CC4)nc(CC)n32)s1,-20,2.9
CCOc1ccc2nc(N3CCCC(C(=O)NCc4ccccc4OC)C3)sc2c1 (stereo not given),5,-0.8
CNC(=O)C1CCC(Cn2c(=O)c3sccc3n(CC(=O)NCc3ccc(C)cc3)c2=O)CC1 (stereo not given),21,1.5
Cc1cc(C)cc(NC(=O)CCc2c(C)nc3nc(CNC(=O)c4cccc(F)c4)nn3c2C)c1,41,3.5
CCc1cccc(C)c1NC(=O)CN1C(=O)C2(SCC(=O)N2c2cccc(F)c2)c2ccccc21 (stereo not given),?,-0.2
CSc1nc(Nc2cccc(C)c2)c(C#N)c(-c2ccccc2)n1,14,-0.3
O=c1c2oc3ccccc3c2n(Cc2ccc(Cl)cc2)c(=O)n1Cc1ccc2c(c1)OCO2,59,2.3
Cc1ccc(C)c(N2CCN(C(=O)NCc3noc4ccccc34)CC2)c1,-8,2.3
CCc1nn(CC(=O)NCCC(C)C)c(=O)c2cc3occc3n12,11,-0.1
Cc1cccc(CN2C(=O)c3ccccc3Sc3ccc(C(=O)NCCc4ccccc4)cc32)c1,13,2.1
Cc1cccc(NC(=O)CS(=O)(=O)c2cccc3nsnc23)c1,-19,1.9
COc1ccc(C(=O)Nc2nc3c(s2)Cc2c(Br)ccc(OC)c2-3)cc1OC,-10,0.2
COc1cc(OC)c(NC(=O)NC(C)c2c(-n3cccc3)sc(C)c2C)cc1Cl (stereo not given),8,1.3
Cc1oc2c(c1C(=O)Nc1cccc(Br)c1)C1=NCCN1C=N2,-17,0.3
CCN1CCN(c2ncc3c(n2)CCN(Cc2ccc(Br)s2)C3)CC1,-1,-0.2

# Assay outcomes deposited in PubChem by National Center for Advancing Translational Sciences (NCATS).

# A portion of the library. The share of hits here may be higher or lower than overall.
